HIV Env fusion: HIV envelope-mediated fusion inhibition. HeLa-JRFL Env/CEM21 cell fusion, luciferase. inhibition, % at 12.3 µM. hit rate 1.1% among 360,000;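 active means mean replicate inhibition score of at least 50 and every replicate individually at or above 50; inconclusive means only one of the two criteria met; inactive means mean below 50 and not all replicates reaching 50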;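 further: 0% = plate neutral controls and 100% = maraviroc near 300 nM; one replicate is shown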
MT1-MMP act inh: MT1-MMP (human) activation inhibition | HT1080 RFP-PRO-GFP cells, GFP/RFP ratio fluorescence, overnight; percent of plate control window, DMSO zero | GFP/RFP ratio change, % at 20 µM | hit rate 0.061% among 360,000;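 active means GFP/RFP ratio change of at least 30% with cell ATP level not reduced by more than half and red fluorescence within 50% of control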; further: strong numbers were not always called active
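Assay system: HT1080 RFP-PRO-GFP cells | Dosing: 20 µM single dose, 1% DMSO | Incubation: Cells overnight before dosing, compound overnight, 37 °C, 5% CO2 | Evaluation: GFP/RFP fluorescence ratio | Control set: DMSO-only wells and HT1080 RFP-L50D-GFP cell wells as references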
Yeast UUG start: modulators of start codon recognition fidelity in yeast | S. cerevisiae UUG-firefly luciferase reporter, luminescence/redox ratio | activity score, % at 18.7 µM | hit rate 0.13% among 350,000;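 active means replicate mean at a twofold rise or more, about +100% in these data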;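 further: firefly luciferase made from a UUG start codon reports start codon fidelity; reporter light over untreated wells divided by growth signal over untreated wells; some hits fall short of that in this replicate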
Rce1 inh: yeast Ras-converting enzyme inhibition | yeast membranes, quenched prenylated peptide cleavage fluorescence | Q03530 | calls only | hit rate 0.27% among 290,000;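 active means fall in fluorescence gain of 50% or more versus controls, with final raw signal at or below 3038400; inconclusive means same 50% fall but final raw signal above 3038400; inactive means fall in fluorescence gain under 50%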;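 further: plate controls were neutral control wells for no effect and wells lacking membranes for full effect; tested at 10 µM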
Target sequence (Q03530 whole entry, looked up): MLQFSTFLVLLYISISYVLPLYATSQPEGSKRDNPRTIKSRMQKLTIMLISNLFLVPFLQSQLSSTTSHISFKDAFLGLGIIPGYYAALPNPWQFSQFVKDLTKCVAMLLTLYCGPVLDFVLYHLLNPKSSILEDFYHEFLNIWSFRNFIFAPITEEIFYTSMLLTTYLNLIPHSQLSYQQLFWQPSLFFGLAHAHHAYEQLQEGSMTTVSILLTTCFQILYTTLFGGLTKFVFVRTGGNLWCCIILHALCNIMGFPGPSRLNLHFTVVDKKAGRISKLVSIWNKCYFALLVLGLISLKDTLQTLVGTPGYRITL
CSC inhib: cancer stem cell inhibition. cancer stem cell-like cells viability, luminescence. inhibition, % at 7.5 µM. hit rate 1.1% among 300,000. AID 2717;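 active means mean at 75% or more and at least half the replicates too; inconclusive means mean and replicates disagree; tested in HMLE shEcad cells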;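 further: 0% = median of negative and 100% = median of positive control wells; the first replicate is given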
PABP FP inh: blocks human PABP binding to poly(A) RNA | P11940 | inhibition, % at 35 µM | AID 2014 | hit rate 1% among 290,000 | fluorescence polarization;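 active means 50% or more with normal probe brightness, or confirmed in later tests; inconclusive means above 50% with abnormal brightness, or retests that disagree; inactive means below 50% or failed in later tests; about a fifth of its hits are not listed in these tables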;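 further: calls also rest on retests at 20 µM and on dose response follow-up; controls were probe without protein and protein plus probe with vehicle; some compounds called inactive have numbers as strong as hits; many hits fall short of the cut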
eIF4H FP inh: inhibitors of RNA binding by human eIF4H. Q15056. eIF4H fluorescence polarization binding assay. inhibition, % at 35 µM. hit rate 0.94% among 290,000. AID 2012;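 active means 50% or more with normal probe brightness, or confirmed in later tests; inconclusive means above 50% with abnormal brightness, or retests that disagree; inactive means below 50% or failed in later tests; about a fifth of its hits are not listed in these tables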;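 further: calls also rest on retests at 20 µM and on dose response follow-up; 0% = protein and probe with vehicle and 100% = probe without protein; strong numbers were not always called active; many hits fall short of the cut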
MT1-MMP act inh RFP: further read-out of MT1-MMP act inh, marked with its call; RFP signal change, %; measured here: RFP expression control read;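 0 = vehicle wells; hits needed this value within 50% of zero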
Active calls of the source: *; i = inactive; ? = inconclusive; · = no result given; + = active, no number; & = joins results of further samples. An excerpt; rates above refer to the full screens.

SMILES	HIV Env fusion	MT1-MMP act inh	MT1-MMP act inh RFP	Yeast UUG start	Rce1 inh	CSC inhib	PABP FP inh	eIF4H FP inh
CC(C)N1CC(O)=C(c2nc3ccccc3[nH]2)C1=N	·	13	7	-25	i	0	-11	3
CCOC(=O)Cn1c2ccc(F)cc2c2nc(C)sc21	32	4	3	-5	i	-9	-5	-10
Cc1ccc(-c2nc(CN3CCCCC3c3cccc(F)c3)c(C)o2)o1 (stereo not given)	3	-7	2	·	i	-2	-7	23
CCOCCOC(=O)COC(=O)c1ccccc1NC(=O)c1ccccc1	7	4	6	·	i	-5	6	-2
Cc1cc(C(=O)NC2CC(C)(C)Cc3c2cnn3-c2ccccc2)n(C)n1 (stereo not given)	10	-6	-8	2	i	-8	6	-2
Cc1cc(C)n(CC(=O)N/N=C/c2cccc([N+](=O)[O-])c2)n1	11	-2	-1	·	i	-8	14	3
CS(=O)(=O)N(CC(=O)NC1CCCCC1)Cc1ccc(F)cc1	9	·	·	·	i	-1	-4	-7
O=C1OC(Cc2ccccn2)C(O)=C1C1=NCCCCN1 (stereo not given)	-25	-2	2	-17	i	-9	7	1
Cc1ccc(Cn2nnc3c(=O)n(CC(=O)NCc4ccc5c(c4)OCO5)cnc32)cc1	·	2	-2	-9	i	5	2	-11
CC1CCN(C(=O)c2ccc(S(=O)(=O)N(C)C)cc2)C(C)C1 (stereo not given)	-3	-2	-1	-10	i	-16	-7	-2
Cc1ccc(S(=O)(=O)NC(=O)COc2ccccc2)cc1	13	0	2	-12	i	-7	3	-4
S=C(Nc1cccc(Cl)c1Cl)Nn1cnnc1	·	-3	1	·	i	-5	-9	-4
CCN(CC)CCNC(=O)c1cc(-c2cccnc2)nc2ccc(S(=O)(=O)N3CCC(C)CC3)cc12	17	-7	-3	-17	i	-13	12	0
CCOc1ccccc1NC(=O)c1cc(=O)c2ccccc2o1	4	-5	0	-17	i	-4	-1	-8
CCOc1ccc(C(=O)N/N=C/c2cccc3cccnc23)cc1	·	2	0	-22	i	0	-2	13
CC1CCN(S(=O)C23CC4CC(CC(C4)C2)C3)CC1 (stereo not given)	24	-3	0	·	i	-5	-15	-2
FC(F)(F)c1ccccc1NC(=S)N1CCN(Cc2ccc3c(c2)OCO3)CC1	28	4	-16	·	i	·	8	0
COCC(=O)N(C)[C@H]1C[C@H]2c3cc(N4CCN(C)CC4)ccc3CCN2C(=O)[C@H]1[C@H](C)O	-5	3	5	-14	·	·	·	·
CC1(C(=O)NCCc2ccccc2)Cc2c(-c3cccc(C(N)=O)c3)ccnc2O1 (stereo not given)	12	-5	-9	9	·	·	·	·
CCN(C[C@H]1N[C@@](C)(C(=O)OC)[C@H]2C(=O)N(C)C(=O)[C@@H]12)C(=O)c1ccc(F)cc1	-10	1	7	-8	·	·	·	·
Cc1ccc(S(=O)(=O)NC2CCCCC2)c2nsnc12	10	0	3	·	i	-3	-3	1
O=C(Nc1ccc(F)cc1)c1ccc(-n2ccnc2)nc1	-41	8	3	-24	i	-13	13	3
O=C(CNC(=O)c1ccc(Br)cc1)N=Nc1c(O)[nH]c2ccc([N+](=O)[O-])cc12	4	1	3	-10	i	·	0	15
O=C(CC1NCCNC1=O)Nc1ccc2c(c1)OCO2 (stereo not given)	-20	-15	-23	-8	i	-11	-16	-2
COc1cc(C(=O)Nc2scc(-c3ccc(Br)cc3)c2C(=O)O)cc(OC)c1OC	16	12	-2	-12	i	41	13	1
O=C(NCCc1nnc2ccc(NCc3ccc(F)cc3)nn12)c1ccccc1	21	-5	-3	·	i	11	-7	-4
O=C(O)c1nn(-c2cccc(Cl)c2)c(=O)cc1O	3	-1	3	·	i	-6	-7	-2
CC(NC(=O)COC(=O)c1ccc2ccccc2n1)C1CC2CCC1C2 (stereo not given)	6	-2	3	·	i	2	0	30
Cn1cc(CC(=O)NC2CCCCC2)c2ccccc21	5	0	-1	·	i	-8	2	2
COc1ccc(C(=O)Nc2cc3c4c(c2)C(C)C(=O)N4CCC3)cc1 (stereo not given)	-40	0	7	-9	i	1	·	·
COc1cc(/C=N/NC(=S)Nc2cccc(S(=O)(=O)N(C)C)c2)cc(OC)c1O	·	12	1	-19	i	-9	-6	5
CN1CCc2c(sc(NC(=O)CS(=O)(=O)c3ccc(F)cc3)c2C(N)=O)C1	7	2	3	·	i	-12	·	·
CCCSc1ccc([C@@H]2[C@@H]3C(=O)N(C)C(=O)[C@@H]3[C@]3(C(=O)OC)CCCN23)cc1OC	·	-8	0	-10	·	-2	·	·
COC(=O)c1sccc1NC(=O)C1CC=CCC1C(=O)O (stereo not given)	-46	2	4	-13	i	-15	4	0
COc1ccc(CNC(=O)Nc2ccc3c(c2)N(C)C(=O)CS3)cc1	-10	1	3	·	i	·	29	10
COc1ccc(C2CC(c3cccs3)=NN2c2ccccc2)cc1 (stereo not given)	9	-4	-5	·	i	5	2	-4
CCCn1c(=N)n(CC(=O)OCC)c2ccccc21	·	-5	5	-1	i	-14	8	4
Nc1nonc1C(=O)OCC(=O)N1CCOCC1	-44	-2	6	-14	i	-1	0	-3
Cc1cc(=O)oc2cc(NS(=O)(=O)c3ccc(F)cc3)ccc12	-38	-2	-6	-2	i	12	1	3
CC[n+]1c(/C=C/N(C)c2ccccc2)oc2ccc(Cl)cc21	?	2	8	-9	i	-6	-6	-2
C=C(C)Cn1c(C)cc(C)c(S(=O)(=O)c2ccc(C)cc2)c1=O	3	-2	3	·	i	-4	-5	-6
OC(Cc1ccncc1)(c1ccccc1)c1ccccc1	39	2	-4	3	i	3	·	·
Cc1nc2ccccc2n1CC(=O)N/N=C/c1cccnc1	-9	12	8	·	i	-3	0	1
COc1cc(CNC(C)C)c(Br)cc1OC1CCCC1	9	3	0	14	i	10	-7	5
C[C@H](CO)N1C[C@H](C)[C@@H](CN(C)C(=O)NC2CCCCC2)Oc2c(NC(=O)CCC(F)(F)F)cccc2C1=O	-62	4	3	-10	·	·	·	·
O=C(Cn1c(=O)oc2cc(S(=O)(=O)N3CCCC3)ccc21)Nc1cccc(C(F)(F)F)c1	·	-4	-13	-10	i	10	-11	8
Cc1ccc(NC(=O)/C=C/c2ccc([N+](=O)[O-])s2)c(C)c1	-38	-133	-6	·	i	107*	4	2
CCC(CC)NC(=O)c1cccc(NC(=O)C(C)C)c1	6	-5	0	·	·	-2	-3	2
CCOC(=O)c1c(-c2cccc([N+](=O)[O-])c2)csc1NC(=O)C1CCCCC1	·	-6	-9	·	i	35	-11	6
COc1ccc(C(=O)NC(C(=O)N2CCN(c3ccccc3O)CC2)C(C)C)cc1 (stereo not given)	5	-2	3	-2	i	-5	21	-16
The results go on:
SMILES	HIV Env fusion	MT1-MMP act inh	MT1-MMP act inh RFP	Yeast UUG start	Rce1 inh	CSC inhib	PABP FP inh	eIF4H FP inh
O=C(COc1ccc(Cl)cc1Cl)Nc1ccccc1NS(=O)(=O)c1cccs1	-6	-4	-4	-16	i	-6	-4	2
COc1ccc(NC(=O)C2CCCN(c3cnccn3)C2)cc1 (stereo not given)	2	2	8	-5	i	2	·	·
CC(=O)N1CCN(c2ccc(NC(=O)c3ccc([N+](=O)[O-])o3)cc2Cl)CC1	-106	4	-22	-12	i	11	0	-4
Cn1c(=O)c2c(nc(N3CCN(c4ccccc4)CC3)n2CCCc2ccccc2)n(C)c1=O	·	8	-7	-2	i	38	-1	-4
COc1ccccc1-c1nc2ccccc2nc1-c1ccccc1	1	1	-6	·	i	-4	0	3
CCOC(=O)C1=CN(CC)S(=O)(=O)NC1c1ccc(F)c(Cl)c1 (stereo not given)	4	4	5	-17	·	·	·	·
CC(C)N1CCC(N2CCN(Cc3cc4c(cc3Cl)OCO4)CC2CCO)CC1 (stereo not given)	5	5	0	10	i	15	4	-7
O=C(Oc1cccc(-c2cnc3ccccc3n2)c1)c1ccco1	·	5	-2	-15	i	14	11	4
O=S(=O)(c1cccc(C(F)(F)F)c1)N(CCCN1CCOCC1)Cc1cccs1	15	5&-5	0&-6	-3	i	0	-3&9	-8&4
Cc1c(CC(Cl)(Cl)Cl)c2c(n1O)CC(C)(C)CC2=O	-3	-2	-3	·	i	-2	5	-6
N#Cc1ccccc1CSCCNC(=O)Cc1c(F)cccc1Cl	13	-3	-2	-4	i	3	12	-2
O=C(NN1CCOCC1)c1cn(-c2ccccc2)nc1-c1cccs1	1	2	-3	4	i	-7	1	-1
CCC(c1nnnn1C1CCCC1)N1CCN(c2cccc(OC)c2)CC1 (stereo not given)	2	1	2	·	i	1	10	6
CCN1CCN(C(=O)c2ccc3c(c2)N(Cc2ccccc2)C(=O)c2ccccc2S3(=O)=O)CC1	·	5	5	1	i	-5	5	1
CCOC(=O)c1[nH]c2ccc(Cl)cc2c1-c1ccccc1	5	-2	-3	-16	i	32	-11	-8
Cn1c(=O)[nH]c(NC2CCCCC2)c(N=O)c1=O	6	2	5	·	i	-18	-4	-9
CN(C)c1cccc(O)c1	·	6	17	-8	·	-9	·	·
C=CCOc1c(CNc2nccs2)cccc1OCC	6	-4	3	-23	i	1	-1	-13
COCCCNC(=S)NCCCNc1nc2cc(C)cc(C)c2cc1C#N	18	4	0	·	i	-7	4	-12
COc1ccc(S(=O)(=O)N(C)c2ccc(OCC(=O)Nc3cc(C)on3)cc2)cc1	·	-6	-1	-9	i	-8	-12	-1
CCN(CC)CCCN1C(=O)c2oc3ccccc3c(=O)c2C1c1cccs1 (stereo not given)	·	·	·	·	i	·	1	-7
Cc1ccccc1CN(C)CC(=O)NC(C)CCc1ccccc1 (stereo not given)	16	-2	-7	-7	i	5	41	-6
O=C(Nc1cc(Cl)cc(Cl)c1)C1CC(=O)N(C2CCCC2)C1 (stereo not given)	38	5	-2	11	i	-4	·	·
CC(C)CC1CCCCC1OC(=O)CN1CCCCC1 (stereo not given)	5	1	2	-11	i	·	3	-1
Cc1ccc(NC(=O)Nc2nnc(Cc3ccc(F)cc3)s2)cc1	6	0	-3	-12	i	60	4	5
C[C@@H]1CN([C@@H](C)CO)C(=O)c2cc(C#CC(C)(C)O)cnc2O[C@@H]1CN(C)C(=O)c1ccccc1F	17	-1	2	21&7&0	·	·	·	·
CN(C)c1ccc(/C=N/NC(=O)CNC(=O)c2ccco2)cc1	-6	-3	5	·	+	-13	-11	4
CC(C)(C)C(=O)Nc1ccccc1C(=O)Nc1ccncc1	-9	4	6	-4	i	-7	2	-1
O=C(COC(=O)Cc1cccs1)Nc1ccccc1F	-28	1	0	-11	i	-1	5	-7
Cc1ccc2c(c1)c1c3n2CC(=C2C(=O)OC(C)(C)OC2=O)NC3CCC1 (stereo not given)	·	-26	-1	5	i	-4	20	13
COc1ccc2c(c1)CCc1sc(NC(=O)c3ccco3)nc1-2	·	1	-10	-3	i	7	3	2
N#Cc1ccccc1NC(=O)c1ccc2c(c1)OCCO2	-31	0	0	-19	i	-1	6	2
CCn1c(C(=O)O)c(CC(=O)NC2CCCCCC2)c2ccccc21	17	1	3	·	i	-8	-2	6

Another view of some results above:
Structure: COc1ccc2c(c1)CCc1sc(NC(=O)c3ccco3)nc1-2
  HIV Env fusion = ·	MT1-MMP act inh = 1	MT1-MMP act inh RFP = -10	Yeast UUG start = -3	Rce1 inh = i	CSC inhib = 7	PABP FP inh = 3	eIF4H FP inh = 2

Structure: N#Cc1ccccc1NC(=O)c1ccc2c(c1)OCCO2
  HIV Env fusion = -31	MT1-MMP act inh = 0	MT1-MMP act inh RFP = 0	Yeast UUG start = -19	Rce1 inh = i	CSC inhib = -1	PABP FP inh = 6	eIF4H FP inh = 2

Structure: CCn1c(C(=O)O)c(CC(=O)NC2CCCCCC2)c2ccccc21
  HIV Env fusion = 17	MT1-MMP act inh = 1	MT1-MMP act inh RFP = 3	Yeast UUG start = ·	Rce1 inh = i	CSC inhib = -8	PABP FP inh = -2	eIF4H FP inh = 6
